Compound activity (PubChem BioAssay)
RGS16-Gao = RGS16-Galphao interaction regulator (human); O15492+P09471; bead-based flow cytometry RGS16-Galphao binding, fluorescence; actives lie on both sides; binding response (% of control), % at 10 µM; 220,000 tested, 0.38% active;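 active = below 25% or above 175%, edge rows of some plates excepted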;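 also: Galphao activated by GDP with aluminum fluoride before binding; 100% = wells without compound and 0% = beads without RGS; some results beyond the cut were filed as inactive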
Target sequence (O15492 whole entry, looked up): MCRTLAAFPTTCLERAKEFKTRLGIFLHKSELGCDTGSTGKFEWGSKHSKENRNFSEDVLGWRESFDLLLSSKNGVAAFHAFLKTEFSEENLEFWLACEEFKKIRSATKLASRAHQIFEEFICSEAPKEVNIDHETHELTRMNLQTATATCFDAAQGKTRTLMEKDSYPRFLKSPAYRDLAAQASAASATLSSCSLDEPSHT
Target sequence (P09471 whole entry, looked up): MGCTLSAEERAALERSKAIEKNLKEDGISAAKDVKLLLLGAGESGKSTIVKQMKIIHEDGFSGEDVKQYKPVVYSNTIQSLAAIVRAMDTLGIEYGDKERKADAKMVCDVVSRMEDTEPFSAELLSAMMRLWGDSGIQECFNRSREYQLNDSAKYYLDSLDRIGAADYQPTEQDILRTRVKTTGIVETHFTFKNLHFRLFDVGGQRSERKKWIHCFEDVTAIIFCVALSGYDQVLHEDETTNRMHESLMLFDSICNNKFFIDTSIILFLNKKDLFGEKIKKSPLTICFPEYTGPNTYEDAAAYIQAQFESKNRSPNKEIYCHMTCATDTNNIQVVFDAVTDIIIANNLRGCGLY
Insulin prom inh = TRM-6 insulin promoter activity inhibition | TRM-6 cells (human fetal islet line), insulin promoter-eGFP reporter, imaging; reporter expression induced with tamoxifen | inhibition, % at 2 µM | AID 1273 | 130,000 tested, 0.9% active;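 active = inhibition above the mean plus 3 SD, with well images judged a real hit on visual review, cut at about 60% in these data, passing the limit was not always enough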
GALR2 agonist = activates the human galanin receptor 2 | O43603 | GALR2-expressing cells, agonist activation read-out | activation, %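 (tested at 5 µM)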 | 140,000 tested, 0.48% active;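 active = above mean plus 3 SD of all compounds, about 5% in these data, not always enough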;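 also: 0% = vehicle buffer wells and 100% = reference agonist at full effect; tested in CHO reporter cells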
Target sequence (O43603 whole entry, looked up): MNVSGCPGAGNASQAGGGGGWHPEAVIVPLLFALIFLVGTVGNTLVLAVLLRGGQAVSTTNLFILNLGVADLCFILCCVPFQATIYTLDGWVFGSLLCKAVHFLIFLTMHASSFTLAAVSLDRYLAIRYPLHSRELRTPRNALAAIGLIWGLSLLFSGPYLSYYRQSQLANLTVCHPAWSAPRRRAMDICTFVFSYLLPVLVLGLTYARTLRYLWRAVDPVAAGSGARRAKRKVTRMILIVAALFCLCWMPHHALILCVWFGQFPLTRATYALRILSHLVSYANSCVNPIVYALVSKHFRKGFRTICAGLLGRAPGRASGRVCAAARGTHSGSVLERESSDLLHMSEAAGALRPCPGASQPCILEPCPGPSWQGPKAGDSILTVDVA
PKD1 kinase inh = PKD1 (human) kinase inhibition. 200,000 tested, 0.056% active. Q15139. PKD1 kinase fluorescence polarization assay. inhibition, %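 (about 10 µM by stock and volumes)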;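 active = inhibition of 50% or more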;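 also: controls were vehicle for no effect and a reference inhibitor for full effect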
HSV replic up = HSV replication enhancement | AID 1956 | 220,000 tested, 0.005% active | maximum fold increase | HSV replication augmentation in cells, fold increase;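 active = peak rise of 1.5-fold or more in the series; tested in PC3 cells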;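 also: first round at 10 µM; read as green reporter fluorescence; hits show the peak of a series up to 25 µM; 1 = signal of infected wells without compound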
Insulin prom inh cell count = second read-out of Insulin prom inh, no call of its own (marks repeat the call); normalized cell count, %; measured here: cell count, toxicity; reference of the scale not given here;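 cells exposed to compound for 48 h; stained nuclei by imaging scaled within each plate; lower means fewer cells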
HSV replic up primary fold = further read-out of HSV replic up, marked with its call; fold increase; compound at 10 µM; measured here: primary screen fold increase 10 uM; tested in PC3 cells;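 GFP signal in the first replicate; 1 = infected wells without compound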
The depositor's hits bear a star; i = inactive; . = not tested or not shown. Not a hit list, and some 1.1% of all compounds hit somewhere here.

SMILES	RGS16-Gao	Insulin prom inh	Insulin prom inh cell count	GALR2 agonist	PKD1 kinase inh	HSV replic up	HSV replic up primary fold
CN1C(=O)C2(c3ccccc31)c1c(oc3ccccc3c1=O)C(=O)N2CCCO (stereo unspecified)	100.4	.	.	.	.	i	0.98
Cc1nn(C)cc1/C=N/NC(=O)C1(O)c2ccccc2-c2ccccc21	99.4	.	.	-1.2	0.9	i	0.9
O=C(NCc1cccc(F)c1)C1CCN(S(=O)(=O)Cc2ccccc2)CC1	99.3	.	.	-1.4	-10.0	i	0.81
COc1cccc(-c2ccc(SCC(=O)N3CCOCC3)nn2)c1	97.2	.	.	.	-1.1	i	1.11
O=C(C1CCCN1S(=O)(=O)c1cccc2nsnc12)N1CCCCCC1 (stereo unspecified)	81.6	.	.	.	.	i	0.99
COc1cc(OC)c2c(=O)cc(-c3cccnc3)oc2c1	99.7	.	.	.	.	i	0.77
Oc1ccc(/C=N/N2CCN(C3c4ccccc4-c4ccccc43)CC2)cc1O	89.1	.	.	.	.	i	0.77
CC12CCC(C(=O)N3CCCCC3)(CC1=O)C2(C)C (stereo unspecified)	21.3	-5.3	93.8	0.3	-1.2	i	0.99
CCOC(=O)C1=C(C)C(c2ccc(OC)cc2OC)NC(=O)N1 (stereo unspecified)	94.2	.	.	-0.6	-12.8	i	1.11
O=C(CSc1ccc(C(F)(F)F)cc1[N+](=O)[O-])Nc1ccc2ccccc2c1	95.0	23.1	111.8	0.2	-3.9	i	0.92
COc1cc(/C=N/NC(N)=S)ccc1OC(=O)c1ccc(C)cc1	99.8	-39.3	61.2	-2.2	-3.4	i	0.96
COc1ccc(CNC(=O)CSc2nnc(C)n2-c2ccc(F)cc2)cc1	111.0	-12.5	99.2	-0.2	-12.9	i	0.93
O=C(Nc1sc2c(c1C(=O)O)CCCCC2)c1ccco1	94.5	21.4	163.0	-1.6	-3.6	i	0.93
CC1Cc2ccccc2N1C(=O)CSc1nc2c(c(=O)n(C)c(=O)n2C)n1Cc1ccc(F)cc1 (stereo unspecified)	.	.	.	-1.3	-1.4	i	1.11
Cc1ccc(C2CC(=O)C=C(NCC(C)C)C2)cc1 (stereo unspecified)	105.4	53.3	77.4	-0.7	-7.7	i	0.99
CC(=O)CC(=O)Nc1ccc(Nc2ccccc2)cc1	104.0	13.3	116.8	-0.3	-3.1	i	0.8
COc1ccc(CCNC(=O)COC(=O)/C=C/c2ccc(OCC#N)c(OC)c2)cc1OC	59.5	39.7	135.5	-0.1	-5.7	i	0.81
CSc1ncccc1C(=O)OCC(=O)c1ccccc1Br	98.6	.	.	.	-3.9	i	0.9
COc1ccc(/C=N/N2C(=O)CSC2=S)cc1	88.0	-37.8	69.6	-0.1	3.9	i	0.9
CN1C(=O)CCC1(O)c1ccccc1 (stereo unspecified)	103.5	5.3	118.8	0.8	-8.5	i	0.73
CC(C)c1cc(NC(=O)C(C)(C)C)cc(C(C)C)c1O	100.6	-13.6	82.9	-0.5	8.1	i	0.99
COc1ccc(OC)c(-n2nnnc2SCC(=O)Nc2ccc3c(c2)OCCO3)c1	101.2	-23.1	112.7	-0.7	-4.9	i	0.91
CNC(=S)NNC(=O)c1cccc(C(F)(F)F)c1	116.3	0.0	59.2	-0.8	-5.0	i	1.18
CCOC(=O)c1sc2nc(C)nc(SCC(=O)N(CC)C3CCS(=O)(=O)C3)c2c1C (stereo unspecified)	101.6	.	.	.	-4.4	i	1.06
CCOCCCN1C(=O)CN(C2CCC(C)CC2)C(=O)C1c1ccc(C)cc1 (stereo unspecified)	105.4	-40.7	97.2	.	-0.8	i	0.98

Individual results from the entries so far.
In HSV replic up primary fold, Cc1nn(C)cc1/C=N/NC(=O)C1(O)c2ccccc2-c2ccccc21 is entered as 0.9
In Insulin prom inh cell count, CN1C(=O)CCC1(O)c1ccccc1 (stereo unspecified) is entered as 118.8

(more compounds)
SMILES	RGS16-Gao	Insulin prom inh	Insulin prom inh cell count	GALR2 agonist	PKD1 kinase inh	HSV replic up	HSV replic up primary fold
O=C1C2C3C=CC(C3)C2C(=O)N1CCC(=O)N1CCc2ccccc21 (stereo unspecified)	102.9	-2.3	83.3	-1.6	-3.3	i	0.66
CCOC(=O)Cc1csc(NS(=O)(=O)Cc2ccccc2)n1	96.3	62.1	123.4	-1.2	1.3	i	1.06
CC(=O)c1oc2ccccc2c1NC(=O)CCCN1C(=O)c2ccccc2C1=O	106.4	.	.	-1.9	-1.3	i	1.09
CCOc1ccc(N2C(=O)Nc3ccccc3C2(O)C(=O)NCc2ccc(OC)cc2)cc1 (stereo unspecified)	105.1	.	.	.	-8.9	i	0.87
Cc1cccc(N(CC(=O)NC2CCCC2)C(=O)CS(=O)CC(=O)Nc2ccc3c(c2)OCO3)c1C (stereo unspecified)	115.3	-156.2	68.9	0.0	-6.2	i	1.12
CCN(CC(=O)Nc1ccc(OC)cc1)CC(=O)Nc1ccc(Cl)cc1F	103.9	0.0	149.2	.	0.4	i	0.93
CC1Cc2ccccc2N1C(=O)CSc1nnc2c(n1)[nH]c1ccccc12 (stereo unspecified)	80.3	-62.5	127.2	-0.8	8.9	i	0.88
COc1ccc(C(=O)NC(=S)NNC(=O)[C@H]2C[C@@H]2c2ccccc2)cc1OC	104.7	.	.	.	.	i	0.85
CCN(CCNC(=O)Cn1c(=O)sc2ccccc21)c1ccccc1	102.2	.	.	.	-0.9	i	0.97
Cc1ccccc1C(=O)O/N=C(\c1ccccc1)c1ccccn1	101.5	10.0	165.2	-0.8	-2.5	i	0.84
Cc1cccc(CSCCNC(=O)c2ccc(CN3CCOCC3)cc2)c1	116.9	71.4*	84.8*	-0.2	-0.6	i	0.95
COc1ccc(NC(=O)c2c(C)oc3c2CCCC3)cc1	101.7	.	.	-1.8	-6.2	i	0.91
O=C(COC(=O)CSc1cccc2cccc(Cl)c12)Nc1ncc(C(F)(F)F)cc1Cl	84.7	.	.	-1.4	-0.1	i	1.17
CCN(CC)c1cc(C)c2ccccc2n1	108.3	6.2	72.5	-0.8	0.4	i	0.88
Cn1ncc(Br)c1C(=O)Nc1cccc(C(F)(F)F)c1	104.4	.	.	.	.	i	1.05
COc1ccccc1NS(=O)(=O)c1cc(N/C(=N\S(=O)(=O)c2ccccc2)c2ccc(F)cc2)ccc1Cl	102.8	14.3	109.8	1.1	-0.8	i	0.82
CC(=O)c1ccc(N2CCN(CC(=O)Nc3ccccc3N3CCOCC3)CC2)cc1	99.5	18.8	103.2	.	-6.4	i	0.82
Cc1cc2c(C)cc(=O)oc2c2c1NCCC2	96.0	-240.9	31.0	13.4*	8.1	i	0.97
Cc1c(/C=C2\SC(=Nc3cccc(C(=O)O)c3)NC2=O)c2ccccc2n1C	88.3	.	.	.	.	i	1.02
CCO[C@H]1OC(C(=O)N2CCN(Cc3ccc4c(c3)OCO4)CC2)=C[C@@H](c2ccc3c(c2)OCO3)[C@@H]1CCCO	112.3	.	.	.	-4.7	i	0.77
COc1cc2c(cc1NC(=O)CSc1nc3ccccc3[nH]1)oc1ccccc12	97.0	-18.2	124.2	-1.8	0.3	i	0.9
Cc1nc2ccc(NC(=O)c3ccc4ccccc4n3)cc2s1	107.6	21.4	75.1	.	-0.6	i	0.99
N#CCCn1nnc2ccccc21	101.8	-48.5	127.5	-1.5	-0.7	i	1
Cc1ccc(OCC(=O)NNC(=O)c2cc(C)[nH]n2)cc1	105.5	-46.4	43.0	-1.5	-3.2	i	1.03
O=C(N/C(=C/c1cccc(Br)c1)c1nc(=S)[nH][nH]1)c1ccccc1	41.3	52.9	43.3	-0.2	-6.7	i	0.93

As a short view, 13 of the compounds above.
SMILES	RGS16-Gao	Insulin prom inh	Insulin prom inh cell count	GALR2 agonist	PKD1 kinase inh	HSV replic up	HSV replic up primary fold
CCN(CC(=O)Nc1ccc(OC)cc1)CC(=O)Nc1ccc(Cl)cc1F	103.9	0.0	149.2	.	0.4	i	0.93
CC1Cc2ccccc2N1C(=O)CSc1nnc2c(n1)[nH]c1ccccc12 (stereo unspecified)	80.3	-62.5	127.2	-0.8	8.9	i	0.88
COc1ccc(C(=O)NC(=S)NNC(=O)[C@H]2C[C@@H]2c2ccccc2)cc1OC	104.7	.	.	.	.	i	0.85
CCN(CCNC(=O)Cn1c(=O)sc2ccccc21)c1ccccc1	102.2	.	.	.	-0.9	i	0.97
Cc1ccccc1C(=O)O/N=C(\c1ccccc1)c1ccccn1	101.5	10.0	165.2	-0.8	-2.5	i	0.84
Cc1cccc(CSCCNC(=O)c2ccc(CN3CCOCC3)cc2)c1	116.9	71.4*	84.8*	-0.2	-0.6	i	0.95
COc1ccc(NC(=O)c2c(C)oc3c2CCCC3)cc1	101.7	.	.	-1.8	-6.2	i	0.91
O=C(COC(=O)CSc1cccc2cccc(Cl)c12)Nc1ncc(C(F)(F)F)cc1Cl	84.7	.	.	-1.4	-0.1	i	1.17
CCN(CC)c1cc(C)c2ccccc2n1	108.3	6.2	72.5	-0.8	0.4	i	0.88
Cn1ncc(Br)c1C(=O)Nc1cccc(C(F)(F)F)c1	104.4	.	.	.	.	i	1.05
COc1ccccc1NS(=O)(=O)c1cc(N/C(=N\S(=O)(=O)c2ccccc2)c2ccc(F)cc2)ccc1Cl	102.8	14.3	109.8	1.1	-0.8	i	0.82
CC(=O)c1ccc(N2CCN(CC(=O)Nc3ccccc3N3CCOCC3)CC2)cc1	99.5	18.8	103.2	.	-6.4	i	0.82
Cc1cc2c(C)cc(=O)oc2c2c1NCCC2	96.0	-240.9	31.0	13.4*	8.1	i	0.97

(cont.)
SMILES	RGS16-Gao	Insulin prom inh	Insulin prom inh cell count	GALR2 agonist	PKD1 kinase inh	HSV replic up	HSV replic up primary fold
CC(C)CC(=O)NC(=S)Nc1cccc(NC(=O)c2ccccc2)c1	92.8	-12.1	48.5	-1.0	-0.3	i	0.96
O=C(c1ccco1)N1CCN(S(=O)(=O)Cc2ccc(Cl)cc2)CC1	101.8	-420.0	44.5	-2.1	-6.0	i	0.71
CCOC(=O)c1[nH]c2ccccc2c1NC(=O)CCN1CC(C)OC(C)C1 (stereo unspecified)	100.6	4.7	80.8	-0.4	-12.2	i	0.86
COc1cc2c(cc1OC)CN(C(=S)Nc1ccc(C)cc1C)CC2	108.8	11.8	96.1	-0.9	-3.2	i	0.85
O=C1OC(/C=C/c2ccccc2)=NC/1=C/c1ccco1	103.8	18.8	107.3	-1.6	-1.6	i	0.91
COc1cc2cc(CN(Cc3cccnc3)C(=O)NCc3ccccc3)c(=O)[nH]c2cc1OC	98.1	.	.	0.1	8.6	i	0.963
COc1ccccc1C(=O)Nc1ccc(C2=NNC(=O)CC2C)cc1 (stereo unspecified)	97.0	-16.7	133.3	0.4	4.9	.	.
CC1=NN(C(=O)c2ccc(Cn3cc([N+](=O)[O-])cn3)cc2)C(O)(C(F)(F)F)C1 (stereo unspecified)	134.2	12.5	101.6	-1.0	-6.9	i	1.07
Cn1c(Cl)cnc1C1CC(=O)c2cc(Cl)ccc2O1 (stereo unspecified)	100.2	.	.	-1.3	-0.8	i	0.843
COc1ccc(/C=C/C(=O)OCC(=O)NCc2ccco2)cc1OC	96.8	6.2	118.0	-1.1	9.7	i	0.94
CC1CCCCC1NC(=O)COC(=O)COc1ccccc1Cl (stereo unspecified)	104.7	-100.0	73.1	.	-9.0	i	0.88
